Screening results: PubChem BioAssay, National Center for Advancing Translational Sciences (NCATS)
Vaccinia Venus: vaccinia inhibition (Venus reporter). Vaccinia virus Venus reporter expression, fluorescence. Potency, µM (doses to about 36.5 µM), without a hit: at the top dose activity change, negative = inhibition, hits mostly inhibitors. 330,000 compounds, 0.46% hits. AID 720580; active means well fitted inhibition curve with a large enough effect; inconclusive means small, poorly fitted or top-dose-only effect; inactive means no such curve, though single readings can be large or run the other way; tested in A549 cells; also: nearly all actives have a fitted effect of over 30% in size; inactives centre near -10
VACV mCherry inh: vaccinia inhibition (mCherry reporter) | Vaccinia virus mCherry reporter infection, fluorescence; about a quarter of the inactives have no number | 310,000 compounds, 0.63% hits | Potency, µM (titrated, usually from 36.5 µM), inactives show at the top dose activity change, negative = inhibition, hits mostly inhibitors; active = well fitted inhibition curve with a large enough effect; inconclusive = small, poorly fitted or top-dose-only effect; inactive = no such curve, though single readings can be large or run the other way; tested in A549 cells; also: nearly all actives have a fitted effect of over 35% in size; inactives centre near -10
The depositor's hits bear a star; i = inactive; ? = inconclusive; . = not tested or not shown; & = joins results of further samples; [ ] = remark or other dose. % is scaled to controls: 0 for no effect and ±100 for the full control effect; potency is read from the fitted curve at half-maximal effect.

smiles	Vaccinia Venus	VACV mCherry inh
CCNc1nc2c(c(=O)n(C)c(=O)n2C)n1CC(O)COc1ccccc1 (configuration not stated)	-6%	-14%
CC(OC(=O)CCCOc1ccccc1)C(=O)Nc1ccc(Cl)cn1 (configuration not stated)	-8%	-16%
CN(CC(=O)Nc1sccc1C#N)C1CCCCC1	0%	-13%
Cc1ccc(C(=O)c2cn(CC(=O)Nc3ccc(C(C)C)cc3)c3nc(C)ccc3c2=O)cc1	?	?
Cc1ccc(NC(=O)c2c(C)oc3nc(C)nc(N4CCCC4)c23)c(C)c1	-14%	0%
CC(=NO)c1cc(Br)c2cccc3c2c1CC3	?	i
CC(C)OC(=O)CC1C(=O)NCCN1C(=S)NC(=O)c1cccs1 (configuration not stated)	-3%	i
COc1ccc(NC(=O)Cn2c([N+](=O)[O-])cnc2C)c(OC)c1	-9%	i
CCn1c(=O)c2c(nc3n2CCN3c2ccccc2)n(C)c1=O	-10%	-2%
O=c1c2ccccc2[nH]c(=S)n1CCN1CCCC1	-8%	i
COc1ccc(-c2noc(CCC(=O)N3CCN(c4ccccc4C(F)(F)F)CC3)n2)cc1	-9%	-12%
O=C(CCOc1ccccc1)NNC(=O)c1ccccc1	-7%	i
CS(=O)(=O)N1CCN(c2nc3ccccc3s2)CC1	-7%	i
COc1ccccc1CCC(=O)Nc1ccc(OC)c(S(=O)(=O)N2CCOCC2)c1	-8%	-6%
CCOc1ccccc1NC(=S)N1CCC(NC(=O)c2ccco2)CC1	-1%	7%

Filtered by structure, those above with four or more nitrogen atoms.
smiles	Vaccinia Venus	VACV mCherry inh
CCNc1nc2c(c(=O)n(C)c(=O)n2C)n1CC(O)COc1ccccc1 (configuration not stated)	-6%	-14%
Cc1ccc(NC(=O)c2c(C)oc3nc(C)nc(N4CCCC4)c23)c(C)c1	-14%	0%
COc1ccc(NC(=O)Cn2c([N+](=O)[O-])cnc2C)c(OC)c1	-9%	i
CCn1c(=O)c2c(nc3n2CCN3c2ccccc2)n(C)c1=O	-10%	-2%
COc1ccc(-c2noc(CCC(=O)N3CCN(c4ccccc4C(F)(F)F)CC3)n2)cc1	-9%	-12%

The list goes on:
smiles	Vaccinia Venus	VACV mCherry inh
COc1ccc(OC)c(CCNC(=O)c2nc(-c3ccc(Cl)cc3)n3c2CCCCC3)c1	-25%	?
Cc1cc(C)c2c(=O)[nH][nH]c2n1	-10%	-24%
CC1(C(=O)NS(=O)(=O)c2ccc(C#N)cc2)CCN1C(=O)CC1CCCC1 (configuration not stated)	4%	33%[activator]
O=C(COc1ccc(/C=N/NC(=O)c2cc3ccccc3o2)cc1Br)Nc1ccccc1	?	?
Cc1nn(C)c(C(=O)Nc2ccn(Cc3c(F)c(F)cc(F)c3F)n2)c1[N+](=O)[O-]	0%	-17%
CCOc1ccc(NC(=S)Nc2cc(OC)c(Cl)cc2OC)cc1	-17%	?
CCOC(=O)Cc1c(C)nc2c(-c3ccc(OC)cc3)c(C)nn2c1C	-20%	-13%
CCc1ccc(OCC(=O)N2c3ccccc3CCc3ccccc32)cc1	?	?
COc1cccc(CN(C)CC(=O)Nc2ccccc2C(=O)Nc2ccccc2)c1	-14%	-2%
CC(C)(C)n1nnnc1C(c1ccccn1)N(Cc1ccccc1)Cc1ccc(Cl)cc1 (configuration not stated)	?	?
Cc1ccc2nc(CN3CCN(S(=O)(=O)c4ccc(F)cc4)CC3)oc2c1	5%	-8%
CCOc1cc(/C=C(\CC(=O)O)c2nc3ccccc3s2)ccc1OC	-5%	-2%
Cc1ccc(/C=C/C(=O)Nc2cccc3ncccc23)o1	-3%	-8%
COc1ccc(CNC(=O)COCc2cc(-c3ccc4c(c3)OCO4)on2)cc1	-8%	i
O=C(c1cc2nc(-c3ccccc3)cc(-c3ccccc3)n2n1)N1CCC2(CC1)OCCO2	?	.
COC(=O)c1ccc(CNC(=O)C2CCC(=O)N(Cc3ccccn3)C2)cc1 (configuration not stated)	0%[7.34 µM]	-5%[7.34 µM]
Cc1ccc(NC(=O)CN2CCN(C3CCCCC3)C(=O)C2=O)cc1	-4%	-8%
N#Cc1ccc(-c2cccs2)nc1SCC(=O)Nc1cccc(C(F)(F)F)c1	-2%	-15%
Cc1nc2nc(-c3ccc(Cl)cc3Cl)nn2c(C)c1CCC(=O)Nc1ccc(F)cc1	-10%	-12%
CCCS(=O)(=O)NC(=O)C1(C)CCCN(C(=O)c2ccccc2OC)C1 (configuration not stated)	-3%	40%[activator]
CC(NCC1COc2ccccc2O1)C(=O)NCc1ccccc1 (configuration not stated)	-5%	3%
O=C(CSc1nncn1-c1ccccn1)Nc1cccc(Cl)c1	-11%	i
CC(=O)Nc1ccc(N(C(=O)Cc2cccs2)C(C(=O)NC2CCCC2)c2ccncc2)cc1 (configuration not stated)	-14%	-19%
CCn1c(O)c(N=NC(=O)CNc2ccc(C)cc2)c2ccccc21	-14%	-13%
Cc1cccc(OCC(=O)Nc2cc(Cl)ccc2-n2cncn2)c1C	3%	4%
COc1cccc2cc(C(=O)NC(C)c3ccccc3)c(=O)oc12 (configuration not stated)	-17%	i
O=[N+]([O-])c1cccc(-n2nnnc2CN2CCCC2)c1	6%	i
O=C(COc1ccccc1Br)NC1CCCC1	-14%	-12%
CC(Cn1cnc2ccccc21)C(=O)O (configuration not stated)	0%	-15%
CCOC(=O)C1(C)CCCN(C(=O)CCc2ccccc2)C1 (configuration not stated)	-4%	35%[activator]
CCOc1ccccc1N1CCN(S(=O)(=O)c2ccc(F)c(F)c2)CC1	-27%	.
CCOc1ccc(CN(C)C(=O)CNC(=O)Cc2cccc3ccccc23)cc1	-21%	?
O=C(CCN1C(=O)/C(=C/c2cccs2)SC1=S)Nc1cccc(O)c1	-4%	-24%
CC1CC2OC2CC1COC(=O)C1CC2OC2CC1C (configuration not stated)	-6%	i
Cc1ccc(CNC(=O)c2ccc(S(=O)(=O)N3CCCC3)cc2)cc1	-14%	i
Cc1cccc2c1N(CC(=O)OC(C)C)C(=O)C2=O	-10%	?
COCCn1c(SCc2ccc(C(=O)OC)o2)nc2ccccc2c1=O	0%	-9%
COC(=O)c1ccc(OCC2c3cc(OC)c(OC)cc3CCN2C(=O)C2CC2)cc1 (configuration not stated)	-20%	-22%
O=C(Nc1ccccc1Oc1ccccc1)c1ccccc1F	-4%	-8%
N#CC1=C2C=CC=CN2CC1=O	7%	-7%
COc1cc2[nH]c(=S)nc(NCC3CCCO3)c2cc1OC (configuration not stated)	-6%	i
CC(=O)n1cc(C=O)c2ccccc21	2%	23%
O=C(CC1Nc2ccccc2NC1=O)NCc1cccnc1 (configuration not stated)	-16%	.
Nc1nnc(SCC(=O)NCc2ccc3c(c2)OCO3)s1	-13%	.
CC1Sc2ccc(S(=O)(=O)CCC(=O)NCc3ccc(Cl)cc3)cc2NC1=O (configuration not stated)	-14%[7.34 µM]	-14%[7.34 µM]

In the list so far, two have a COOH group:
smiles	Vaccinia Venus	VACV mCherry inh
CCOc1cc(/C=C(\CC(=O)O)c2nc3ccccc3s2)ccc1OC	-5%	-2%
CC(Cn1cnc2ccccc21)C(=O)O (configuration not stated)	0%	-15%

Additional compounds follow:
smiles	Vaccinia Venus	VACV mCherry inh
CCS(=O)(=O)N1CCCC(C(=O)NCCN2CCC(Cc3ccccc3)CC2)C1 (configuration not stated)	-15%	.
O=C(Cc1ccc(Br)cc1)NCCc1ccccc1	4%	-4%
Cc1ccc(/C=C/C(=O)NCc2ccccn2)o1	-1%	i
CSc1nnc(-c2ccccc2Cl)n1N	9%	.
CCCCN(C(=O)c1cc(S(=O)(=O)N2CCCCC2)ccc1Cl)c1c(N)n(CC(C)C)c(=O)[nH]c1=O	-3%	-16%
Cc1ccc(S(=O)(=O)N2CC=C(c3ccc(F)cc3)CC2)cc1	-10%	-5%
O=C(CSC1=NCCS1)N1CCc2ccccc21	-19%	-29%
COC(=O)CSC1=NN1c1cc(C)nc(N)n1	3%	5%
O=C(Nc1nc2ccccc2n1CCOc1ccccc1Cl)c1ccccc1	-23%	-28%
CCOC(=O)c1cc2occc2n1Cc1c(F)cccc1Cl	4%	-12%
O=C(CSc1ccc2c(c1)OCCO2)Nc1ccc(Br)cn1	?	?
Cc1cc(OCC(=O)N2CCC(C(=O)O)(c3ccccc3)CC2)c2c(C)cc(=O)oc2c1	-12%	-8%
Cc1nn(C)cc1CN(C)Cc1ccc(OCC(O)CN2CCCCC2)cc1 (configuration not stated)	-9%	-19%
O=C1C(c2ccccc2)CN1Cc1ccccc1 (configuration not stated)	3%	i
Cn1c(CNC(=O)c2ccco2)nnc1SCCOc1ccccc1	0%	-12%
COC(=O)C1=C(CCc2ccccc2)NC(=O)NC1c1ccc(C#N)cc1 (configuration not stated)	-15%	i
Cc1ccc(SCC(=O)NN2C(=O)c3ccccc3C2=O)cc1	-2%	-6%
CCOC(=O)C1=C(CN2CCN(C(=O)OCC)CC2)NC(=O)NC1c1ccc2c(c1)OCO2 (configuration not stated)	-6%	-8%
Cc1nc2nc(NCc3cccc(Cl)c3)[nH]n2c(=O)c1Cc1ccccc1	-10%	-14%
CCCCN(C)C(=O)c1sc(=O)n(Cc2c(C)noc2C)c1C	12%	30%[activator]
C(=N\n1cnnc1SCc1ccccc1)/c1ccco1	-10%	.
O=C(NNC1=NS(=O)(=O)c2ccccc21)c1ccc([N+](=O)[O-])cc1	-3%	-3%
O=C(NC1CC1)c1sc2cc(Cl)ccc2c1Cl	-11%	-2%
COc1ccc(/C=N/Nc2ccccn2)c(OC)c1OC	-4%	-12%
O=C(O)CC(CN1C(=O)c2ccccc2C1=O)c1ccccc1 (configuration not stated)	20%	11%
O=C(CSc1oc(-c2ccccc2)nc1S(=O)(=O)c1ccc(F)cc1)NCC1CCCO1 (configuration not stated)	-8%	-10%
COc1ccc(CCNC(=O)CCc2c(C)nc3c4c(C)cc(C)nc4nn3c2C)cc1OC	-5%	1%
Cc1ccc(/C(=C\CN2CCCC2)c2ccccn2)cc1	-14%&-2%	-4%&-5%
CC(=O)N1CCc2cc(Br)cc(S(=O)(=O)N3CCc4ccccc43)c21	-6%	-4%
Cc1cc(S(=O)(=O)Nc2nc(CN3CCOCC3)nc3sc4c(c23)CCC4)ccc1F	-26%	-11%
CC1CCN(S(=O)(=O)c2cc(C(=O)N3CCN(c4ccccc4)CC3)ccc2Br)CC1	?	-26%
Cc1ccc(NC(=O)COC(=O)C2=COCCO2)cc1	-13%	-16%
COc1ccc(/C=N/NC(=O)c2cc3c(ccc4ccccc43)o2)cc1OC	-25%	-14%
O=C(Nc1ccc(C(=O)O)cc1)/C(=C/c1ccc2c(c1)OCO2)NC(=O)c1cccc(Br)c1	-13%	i
COc1cccc(C2=NOC(C(=O)N3CCN(C(=O)c4ccco4)CC3)C2)c1 (configuration not stated)	0%	-6%
O=C(CN1CCOCC1)Nc1ccc(NC(=O)CN2CCOCC2)c(Cl)c1	-9%	-8%
Cc1cc(C)c2nc(-c3cccnc3)cc(C(=O)Nc3ccc(S(=O)(=O)Nc4onc(C)c4C)cc3)c2c1	1%	0%
CC(C)c1ccc(NC2CCCN(C(=O)c3cnsn3)C2)cc1 (configuration not stated)	-18%	-17%
O=C(OCc1ccccc1)/C(=C/c1cccc([N+](=O)[O-])c1)NC(=O)c1ccco1	-25%	-13%
CCC(C)N(C(=O)Cn1c(=O)cnc2ccccc21)C1CCS(=O)(=O)C1 (configuration not stated)	-8%	i
CCOC(=O)c1ccc(N/N=C/c2cc(Br)cc([N+](=O)[O-])c2O)cc1	-5%	1%
O=C(CCCN1C(=O)NC2(CCCC2)C1=O)Nc1cccc(S(=O)(=O)N2CCOCC2)c1	-16%	i
CC(C)(C)C1CCc2c(sc(NC(=O)C3CC=CCC3C(=O)O)c2C#N)C1 (configuration not stated)	-21%	-2%
CCCCn1c(-c2cccc3ccccc23)nc2cc3[nH]c(=O)c(C(C)C)nc3cc21	-14%	i
CC(C)CN(C(=O)c1ccc(C(F)(F)F)cc1)c1c(N)n(CC(C)C)c(=O)[nH]c1=O	-7%	-12%
COCC(C)NC(=O)c1cc2c(=O)n3cccc(C)c3nc2s1 (configuration not stated)	5%	-9%
CCOc1ncccc1C(=O)OCc1ccc(C(=O)OC)o1	-9%	.
CC(C)C(C)NC(=O)CN1C(=O)NC2(CCCc3ccccc32)C1=O (configuration not stated)	-10%	i
CC(C)NC(=O)CC1C(=O)NCCN1CC(c1ccccc1)c1ccccc1 (configuration not stated)	-9%	-13%
CCC(OC(=O)c1ccco1)C(=O)NC1CCCC1 (configuration not stated)	7%	-10%
CCC1(CC)NC(=O)N(CC(=O)Nc2ccc(S(=O)(=O)N3CCOCC3)cc2)C1=O	-12%	i
CCN1CCN(c2nc(S(=O)(=O)c3ccc(C)cc3)c(Cl)s2)CC1	-21%	-10%
CCOC(=O)C(C(C)=O)c1c(Br)c(O)c(O)c2c(C(=O)c3ccc(C)cc3)coc12 (configuration not stated)	13µM*	13µM*
Cc1ccc(CNC(=O)Cn2ccc3ccccc3c2=O)o1	-13%	-14%
